VCAM-1 up – enhancers of VCAM-1 display on endothelial cells, cell-based, plate reader, pooled HUVEC, TNFa stimulus (AID 455) | HUVEC TNFa-induced VCAM-1 immunofluorescence, plate reader; numbers were filed only for top-ranked candidate wells | augmentation, % at 5 µM | 0.2% of 10,000 active;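 active means a compound raising TNF-alpha-driven VCAM-1 surface staining, with its hit status upheld on visual or statistical review; inactive means the rest, including hits rejected on review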;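 further: 0% = TNFa with vehicle and 100% = strongest image-checked hit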
Proteasome disasm – blocks ATP-dependent breakdown of the yeast 26S proteasome; anti-FLAG beads, GFP-proteasome disassembly, flow cytometry; inhibition of disassembly, % (test concentration not listed); 0.2% of 24,000 active; AID 751;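 active means above 40%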;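 further: plate controls were ATP control with full disassembly for no effect and ATP-gamma-S intact proteasomes for full effect; higher percent means more bead fluorescence retained so stronger block of disassembly; stock transfer was 100 nL into about 10 µL; wells with too few beads may also be inconclusive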
* marks the source's active call; other numbers are inactive results; i = inactive; x = not tested or not shown. Not all compounds are listed (hit frequency here may not be typical).

The first two compounds (preview)
SMILES	VCAM-1 up	Proteasome disasm
CC(=O)c1nn(-c2cccc(Cl)c2)cc1C(=O)c1ccco1	x	1.2
Cc1ccc(CSc2nc3c(c(=O)[nH]2)C(c2ccncc2)C2=C(CCCC2=O)N3)cc1 (configuration not stated)	i	2.1

The whole of this part, previewed entries included:
SMILES	VCAM-1 up	Proteasome disasm
CC(=O)c1nn(-c2cccc(Cl)c2)cc1C(=O)c1ccco1	x	1.2
Cc1ccc(CSc2nc3c(c(=O)[nH]2)C(c2ccncc2)C2=C(CCCC2=O)N3)cc1 (configuration not stated)	i	2.1
Cc1noc(C)c1S(=O)(=O)N1CCCC(C(=O)NCC2CCCO2)C1 (configuration not stated)	x	-0.9
CC(=O)Nc1cc2ccc(OC(C)=O)cc2oc1=O	x	0.0
CCOC(=O)c1ccc(NC(=O)Cn2nnc(-c3ccc(F)cc3)n2)cc1	x	0.8
Cc1ccccc1Cn1cnc2c(cnn2C(C)(C)C)c1=O	x	1.1
COc1ccc(N2CSC3=C(C#N)C(c4cccc(OC)c4OC)CC(=O)N3C2)cc1 (configuration not stated)	x	1.1
CCc1nn(C(C)C(=O)NC(C)CCc2ccco2)c(=O)c2cc3occc3n12 (configuration not stated)	x	0.6
O=C1N(CC(=O)N2CCc3ccccc32)CCN1Cc1ccccc1Cl	x	1.2
CN(C(=O)c1ccccc1)c1ccc(OCC(=O)NC2CCS(=O)(=O)C2)cc1 (configuration not stated)	x	-0.9
O=S(=O)(NCCOCC(F)(F)F)c1ccc2oc3ccccc3c2c1	x	-4.7
Cc1nc2c3ccccc3[nH]c(=O)n2n1	x	-1.6
O=C(COc1ccccc1)NCCSCc1ccco1	i	1.7
Cc1cc(NC(=O)COc2cccc3cccnc23)no1	i	21
O=C(NCC(c1cccnc1)N1CCN(c2ccccc2)CC1)c1ccc2c(c1)OCO2 (configuration not stated)	i	5.1
CC1(C)CC(=O)c2cnc(NCc3ccco3)nc2C1	i	-1.0
CN(CC(=O)N1CCCc2c1c(=O)oc1ccc(O)cc21)Cc1ccccc1	i	1.3
COc1ccc(NC(=O)CSc2nc3ccccc3c(=O)n2-c2ccc3c(c2)OCO3)c(OC)c1	x	1.5
COc1ccc(Cn2c(CCC(=O)O)nc3cccnc32)cc1	x	3.0
CCN(CCNC(=O)C1CCN(Cc2nc(-c3ccc(Cl)cc3)oc2C)CC1)c1ccccc1	x	3.3

A section taken from the entries so far:
SMILES	VCAM-1 up	Proteasome disasm
O=C(COc1ccccc1)NCCSCc1ccco1	i	1.7
Cc1cc(NC(=O)COc2cccc3cccnc23)no1	i	21
O=C(NCC(c1cccnc1)N1CCN(c2ccccc2)CC1)c1ccc2c(c1)OCO2 (configuration not stated)	i	5.1
CC1(C)CC(=O)c2cnc(NCc3ccco3)nc2C1	i	-1.0
CN(CC(=O)N1CCCc2c1c(=O)oc1ccc(O)cc21)Cc1ccccc1	i	1.3

2 entries from above, bar-delimited:
compound | VCAM-1 up | Proteasome disasm
Cc1nc2c3ccccc3[nH]c(=O)n2n1 | x | -1.6
O=C(COc1ccccc1)NCCSCc1ccco1 | i | 1.7

(list continues)
SMILES	VCAM-1 up	Proteasome disasm
O=C(C1CC(c2ccc(F)cc2)=NO1)N1CCCCC1 (configuration not stated)	x	-0.2
Cc1ccc(C(C(=O)NC(C)(C)C)N(C(=O)c2csnn2)c2cccc(F)c2)o1 (configuration not stated)	i	0.0
O=C(CN1CCN(S(=O)(=O)c2ccc(Cl)cc2)CC1)Nc1ccc2c(c1)OCO2	x	1.2
COC(=O)CN(c1ccc(C)cc1)S(=O)(=O)c1ccc2c(c1)n(C)c(=O)c(=O)n2C	x	-1.3
O=S(=O)(Nc1ccc(C(F)(F)F)cc1)c1cnc[nH]1	x	-1.6
Cc1csc(OCc2ccc(C#N)cc2)n1	i	-0.2
O=C(NCCCN1CCOCC1)c1cc(-c2ccc(O)cc2)on1	i	-0.8
O=C(COc1ccc(F)cc1Br)N1CCc2ccccc21	i	1.6
COc1ccc(Cl)cc1C(=O)N1CCN=C1SC	x	1.8
Cn1cccc1Cc1nnc(SCC(N)=O)n1CCc1ccccc1	x	1.0
O=C(c1ccco1)N1CCN(C(=O)C2(S(=O)(=O)c3ccc(Cl)cc3)CC2)CC1	x	-1.2
O=C(CSc1ncnc2c1cnn2Cc1ccccc1)Nc1ccc2c(c1)OCCO2	i	-0.7
CCN(CC)CCNC(=O)c1ccc2c(c1)ncn2C1CCCCC1	x	-0.1
COc1ccc(NC(=O)c2ccc3c(c2)n(C)c(=O)n3C)cc1	x	-4.4
COC(=O)CSc1nsc(SCC(=O)OC)n1	x	-0.2
COc1cc2c(N3CCOCC3)cc(O)c(CC(=O)Nc3ccccc3)c2cc1OC	i	-1.8
O=C(O)c1c(Cl)c(Cl)c(Cl)c(Cl)c1C(=O)N1CCOCC1	x	-5.6
Cn1c(=O)cc(SCC(=O)NCCCN2CCOCC2)c2ccc(Cl)cc21	x	-0.5
CCOc1cccc(NC(=O)C2CC(=O)N(C)C(=Nc3cccc(F)c3)S2)c1 (configuration not stated)	x	2.5
OC1C[N+]2(CCCCC2)C1	i	1.8
COC(=O)C(Cc1cncn1COCc1ccccc1)NC(=O)OC(C)(C)C (configuration not stated)	x	-1.0
CCOC(=O)N1CCC(NC(=O)C(NS(=O)(=O)c2ccc3c(c2)CCN3C(C)=O)C(C)C)CC1 (configuration not stated)	x	-0.3
CCCCN(CC)CCCNC(=O)CS(=O)(=O)Cc1nc(-c2cccc(OC)c2)oc1C	i	0.7
CC1Cc2ccccc2N1C(=O)C12CCC(C)(C(=O)C1)C2(C)C (configuration not stated)	i	1.3
O=C(c1cccc(F)c1)N1CCN=C1SCc1cccnc1	x	1.0
O=C(Nc1ccccc1-c1ccccc1)NC1CCN(C(=O)N2CCOCC2)CC1	i	0.9
Cc1ccc(S(=O)(=O)N2CCCC2C(=O)OCc2ccco2)cc1 (configuration not stated)	i	6.9
CCCc1[nH]nc2c1C(c1ccc(OC(=O)N3CCOCC3)cc1)C(C#N)=C(N)O2 (configuration not stated)	x	-1.7
N#Cc1nc(-c2ccco2)oc1NCCc1ccccc1	i	1.4
COc1ccc(N2C(=O)NC3CC2(C)Oc2ccccc23)cc1OC (configuration not stated)	x	0.7
C=COCCn1c(=N)n(CCC)c2ccccc21	x	0.2
COc1cccc2cc(C(=O)C3=C(O)C(=O)N(CCCN4CCOCC4)C3c3ccncc3)oc12 (configuration not stated)	i	1.2
CCN(CC(=O)NC(=O)NCc1ccco1)Cc1nc2ccccc2c(=O)[nH]1	i	0.5
Cc1onc(-c2ccccc2Cl)c1C(=O)N1CCN=C1SCc1cccnc1	x	-0.2
O=C(c1ccc(CS(=O)(=O)c2ccccc2)o1)N1CCOCC1	x	1.6
COc1cc(NS(=O)(=O)N2CCCC2)cc(OC)c1OC	i	0.8
CS(=O)(=O)N(Cc1ccccc1)c1ccc(C(=O)N2CCOCC2)cc1	i	-1.0
Nc1nc2c(s1)CCc1c-2cnn1-c1ccccc1	x	2.9
Cc1cccc(OCC(=O)Nc2cc(C)ccc2O)c1	i	0.6
Cn1c(=O)c2c(nc3sccn32)n(C)c1=O	i	1.4
S=c1[nH]nc(Cc2ccccc2)n1Cc1ccco1	i	-0.3
FC(F)(F)c1nnc2ccc(NCn3nnc4ccccc43)nn12	i	1.3
Cn1c(C(=O)NC2CCCCC2)cc2c(=O)n(C)c3ccccc3c21	x	-1.3
O=C(O)CC(C(=O)Nc1cccc(C(F)(F)F)c1)C1CCCO1 (configuration not stated)	i	1.4
COc1ccc(-n2c(Cc3cccn3C)nnc2SCC(=O)NCc2ccc(F)cc2)cc1	x	-1.6
CCc1ccc(C2CC(=O)N3CN(c4ccccc4)CSC3=C2C#N)cc1 (configuration not stated)	x	-0.9
Cc1ccc(CN2C(=O)CCC2C(=O)NCc2ccc(F)cc2)cc1 (configuration not stated)	x	0.2
CCSc1nc2ccccc2n1S(=O)(=O)c1ccccc1	x	1.3
O=C(NCc1ccco1)c1cc(-c2ccc(Cl)cc2)on1	x	-0.6
CCCCN(CC)S(=O)(=O)N1CCC(C(=O)NCc2ccc(F)cc2)CC1	i	-2.0
O=C(CSc1nc2c(c(=O)n1-c1ccc(F)cc1)SCC2)Nc1ccc2c(c1)OCO2	x	2.0
CCOc1ccc(NC(=O)c2ccc(F)c(S(=O)(=O)N3CCN(c4ccccn4)CC3)c2)cc1	x	-7.5
Cc1ccc(NC(=O)CC2Nc3ccccc3NC2=O)cc1Cl (configuration not stated)	i	9.3
CCOC(=O)c1c(NC(=O)c2ccc(-n3cnnn3)cc2)sc2c1CCCC2	x	1.5
CCCNC(=O)CC(NS(=O)(=O)c1ccc(Cl)cc1)c1ccco1 (configuration not stated)	x	1.1
Cn1c(C(=O)NCCCN2CCN(c3ccc(F)cc3)CC2)cc2c(=O)n(C)c3ccccc3c21	i	-0.7
COc1cccc(-n2nnc3c(=O)n(Cc4ccc(C)cc4)cnc32)c1	x	-0.8
Cn1c(Cn2c(=O)sc3ccccc32)nnc1SCc1ccccc1F	x	2.5
c1ccc(-c2nc(N3CCCCCC3)nc(-n3ccnc3)n2)cc1	x	-0.1
O=C(Nn1cnc2ccccc2c1=O)C1CCCCC1	x	-0.5

Whole records, quoted from the list:
CCCNC(=O)CC(NS(=O)(=O)c1ccc(Cl)cc1)c1ccco1 (configuration not stated) is entered as VCAM-1 up = x; Proteasome disasm = 1.1
CCc1ccc(C2CC(=O)N3CN(c4ccccc4)CSC3=C2C#N)cc1 (configuration not stated) is entered as VCAM-1 up = x; Proteasome disasm = -0.9

(continued)
SMILES	VCAM-1 up	Proteasome disasm
CCOc1ccc(CCNC(=O)CCn2cccc2)cc1OCC	x	-0.9
CC1CCc2nn(CC(=O)Nc3c(F)cc(F)cc3Br)cc2C1 (configuration not stated)	x	0.9
COc1ccc(N2Cc3ccccc3C2)cc1Cl	i	4.8
Cc1ccc(S(=O)(=O)NCc2cn3c(C)csc3n2)cc1	x	-0.3
O=C(Nc1cccs1)Nc1ccccc1Cl	x	3.2
COc1cccc(-c2cc(N)nn2C(=O)Nc2ccc(Cl)cc2)c1	x	-1.5
CN1CCN(c2ccccc2NC(=O)C(Cc2ccccc2)n2cccc2)CC1 (configuration not stated)	x	2.7
O=C(NCCN1CCOCC1)c1ccc(CS(=O)(=O)Cc2ccccc2F)o1	i	4.1
COc1ccc(-n2c(Cc3cccn3C)nnc2SCC(=O)NCC2CCCO2)cc1 (configuration not stated)	i	3.0
C=CCNC(=O)CCNS(=O)(=O)c1ccc(Br)cc1	x	0.8
COc1ccccc1CN1C(=O)CN(C2CCCC2)C(=O)C1c1ccc(F)cc1 (configuration not stated)	x	1.1
CCOC(=O)c1c(NC(=O)c2noc3c2CCCC3)sc(C)c1C	x	-0.5
COc1ccc(C2CC(=O)C(C=NCCCN3CCOCC3)=C(O)C2)cc1 (configuration not stated)	i	3.4
CC1(C)N=C(N)N=C(N)N1c1ccc(F)cc1F	x	0.2
Cn1c(C(=O)O)c(CC(=O)Nc2ccc3c(c2)OCCO3)c2ccccc21	x	-0.3
Cn1c(Cn2c(=O)sc3ccccc32)nnc1SCC(=O)NCc1ccc2c(c1)OCO2	x	4.6
c1ccc(C2COC(c3cccs3)=N2)cc1 (configuration not stated)	x	-2.2
O=C(c1cnc(N2CCN(c3ncccn3)CC2)c2ccccc12)N1CCN(c2ccccn2)CC1	x	-0.8
COc1ccc(OC)c(-c2cc(C(=O)Nc3c(C)n(C)n(-c4ccccc4)c3=O)no2)c1	x	-0.7
CCOC(=O)c1[nH]nc(-c2c(O)cc(C)cc2O)c1-c1csc(C)n1	i	-0.9
c1ccc(-c2nnc(OCCN3CCOCC3)c3ccccc23)cc1	i	-2.5
Cn1cccc1Cc1nnc(SCC(=O)N2CCOCC2)n1CCc1ccccc1	x	0.3
COc1ccccc1S(=O)(=O)Cc1ccc(C(=O)NCCN2CCCCCC2)o1	i	2.3
O=C(CSc1nnc(-c2ccco2)n1CC1CCCO1)NC1CCCC1 (configuration not stated)	i	-8.1
CCOC(=O)c1cnn(-c2ncnc3c2cnn3Cc2ccccc2)c1N	i	-1.1
CCN1CCN(Cc2ccc(NC(=O)Nc3ccccc3OC)cc2)CC1	x	-1.4
O=C(NC1=NCCS1)c1nc(-c2ccccc2)n(-c2ccccc2)n1	i	-0.1
CC(=O)Nc1c(OC(C)=O)ccc2c(C)cc(=O)oc12	x	0.7
O=C(NCc1ccco1)c1ccccc1Nc1ccc(F)cc1	i	15
CCOc1ccccc1-c1nc(-c2ccc(NC(=O)Cc3ccc(OC)cc3)cc2)no1	x	0.6
CCCc1cc(-c2n[nH]c(C)c2-c2ccc(C(=O)OCC)o2)c(O)cc1O	i	-2.5
CS(=O)(=O)N1CCC(C(=O)NCCC2=CCCCC2)CC1	i	-1.8
CCCC(=O)Nc1cc(-c2nnc(OC)c3ccccc23)ccc1N1CCOCC1	i	-0.5
Cc1ccc(S(=O)(=O)NCC(=O)NC2CCCC2)cc1	x	-5.7
COc1ccc(OC)c2[nH]c(=O)c(CCNC(=O)CC(C)C)cc12	i	-1.4
Cc1nc2ccc(NC(=O)N3CCOCC3)cc2s1	i	-2.1
CC(C)(Oc1ccc(CCNC(=O)c2ccc(Cl)cc2)cc1)C(=O)O	i	-0.3
CCOC(=O)CSCc1nc(-c2ccc(Cl)cc2)oc1C	x	-0.6
CCOCCCNC(=O)c1cn(CC(C)C)c(=O)c2cc(OC)c(OC)cc12	x	-0.3
COc1ccc(CNC(=O)C2CCCN(c3nc4ccccc4o3)C2)c(OC)c1 (configuration not stated)	x	0.9
CCOC(=O)CN(C)Cc1c[nH]c2ccccc12	i	10
O=C(Nc1ccc(S(=O)(=O)N2CCCCCC2)cc1)c1ccco1	i	-0.8
COc1cc(OC)c(C2CC(=O)N3CN(C)CSC3=C2C#N)cc1OC (configuration not stated)	x	1.9

Screening data from PubChem BioAssay.
